Screens: PubChem, National Center for Advancing Translational Sciences (NCATS)
TRPML1 inh = blocks the human TRPML1 channel; Q9GZU1; TRPML1-inducible cells, Ca2+ dye fluorescence, FDSS; stronger effect = lower value; inhibition of EC80 agonist-evoked calcium signal; activity change, negative = inhibition, % (no concentration beside the values); 390,000 tested, 0.02% active; in the data active means activity change below about -50%; inconclusive means about -30% to -50%; inactive means above about -30%;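 note: stimulus is agonist 54-4 at its EC80 concentration; % is set by controls: 0 for no effect and ±100 for the full control effect; compound concentration not given in the record; the text of the record puts the active cut at -80%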
Target sequence (Q9GZU1 whole entry, looked up): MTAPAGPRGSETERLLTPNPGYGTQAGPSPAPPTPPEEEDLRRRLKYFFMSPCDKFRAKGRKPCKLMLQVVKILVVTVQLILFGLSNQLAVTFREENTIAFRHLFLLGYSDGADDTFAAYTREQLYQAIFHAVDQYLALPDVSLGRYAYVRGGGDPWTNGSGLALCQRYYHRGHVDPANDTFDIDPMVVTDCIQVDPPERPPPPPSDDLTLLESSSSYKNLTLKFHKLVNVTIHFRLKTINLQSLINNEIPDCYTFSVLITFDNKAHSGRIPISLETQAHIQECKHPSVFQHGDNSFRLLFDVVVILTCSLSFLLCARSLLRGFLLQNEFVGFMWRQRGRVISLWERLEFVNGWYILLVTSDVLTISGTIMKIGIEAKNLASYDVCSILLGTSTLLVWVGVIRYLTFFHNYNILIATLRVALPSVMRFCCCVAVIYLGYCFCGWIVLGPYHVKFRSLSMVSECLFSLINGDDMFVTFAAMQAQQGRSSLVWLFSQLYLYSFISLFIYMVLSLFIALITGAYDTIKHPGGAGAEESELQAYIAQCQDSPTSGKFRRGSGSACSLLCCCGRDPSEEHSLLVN
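Tet-induced TRPML1-DL cells loaded with Ca8 no-wash calcium dye were read kinetically on FDSS. Compound addition was followed by EC80 agonist 54-4 (4 uM final); inhibition was read over 110 s.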
PINK1 modulator = changes PINK1 expression; PINK1 immunofluorescence, high-content cytometry, 24 h; Potency, µM (top dose mostly 76.6 µM), for the others: at the highest dose activation (PINK1 increase), usual class: activators; 410,000 tested, 0.2% active; AID 624263; active = well fitted activation curve with a large enough effect; inconclusive = small, poorly fitted or top-dose-only effect; inactive = flat fitted curve, though single readings scatter; cell line not stated here;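 note: potency is the fitted concentration of half-maximal effect; % of control where 0% means no effect; nearly all actives have a fitted effect of over 65% in size; a mitochondrial uncoupler was the plate control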
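Cells are seeded, rested 12 hours, then given compound at five concentrations or DMSO for 24 hours. After fixation, blocking and antibody staining, PINK1 amount and mitochondrial localization are scored; CCCP serves as control.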
Six1-Eya2 inh = blocks human Six1 binding to Eya2; Q15475+O00167; AlphaScreen GST-Six1/His-Eya2 binding, biochemical; stronger effect = lower value; control for the full effect not named in the record; activity change, % (test concentration not listed); 360,000 tested, 0.56% active; in the data active = activity change below about -65%; inconclusive = about -30% to -65%; inactive = above about -30%; note: % is set by controls: 0 for no effect and ±100 for the full control effect; compound concentration not given in the record
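Homogeneous AlphaScreen proximity assay pairing GST-Six1 with His-tagged Eya2 (added as 5X mix: 250 nM and 500 nM) in 50 mM Tris pH 8.0, 300 mM NaCl, 1 mM TCEP. Glutathione donor and nickel acceptor beads; 1 h, 37 °C, dark.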
D2 ag = activates the human D2 dopamine receptor; P14416; DiscoveRx PathHunter D2 beta-arrestin, luminescence, 90 min; 100% = 57 uM dopamine signal; activation, % (no concentration beside the values); 360,000 tested, 0.084% active; AID 624465; in the data active = activation above about 40%; inconclusive = about 15% to 40%; inactive = below about 15%; note: compound concentration not given in the record; the text of the record calls up to 30% inactive
Target sequence (P14416 whole entry, looked up): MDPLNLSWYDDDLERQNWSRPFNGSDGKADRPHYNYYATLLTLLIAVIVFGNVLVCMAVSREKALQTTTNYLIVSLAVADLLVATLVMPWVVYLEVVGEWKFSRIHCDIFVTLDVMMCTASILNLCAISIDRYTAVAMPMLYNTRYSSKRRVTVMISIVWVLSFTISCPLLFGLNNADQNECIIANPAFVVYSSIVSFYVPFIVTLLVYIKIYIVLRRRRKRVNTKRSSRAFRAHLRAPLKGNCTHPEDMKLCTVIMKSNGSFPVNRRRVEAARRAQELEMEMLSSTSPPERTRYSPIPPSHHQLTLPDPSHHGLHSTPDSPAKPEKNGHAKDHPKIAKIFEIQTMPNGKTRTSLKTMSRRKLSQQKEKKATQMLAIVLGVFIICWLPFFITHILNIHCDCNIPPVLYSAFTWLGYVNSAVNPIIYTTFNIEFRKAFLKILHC
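Agonist mode: compounds alone added to overnight-plated D2 PathHunter cells for 90 min at 37 C, with 57 uM final dopamine (EC100) defining full response. Beta-arrestin recruitment detected by chemiluminescent reagent, read after 1 h at ambient temperature.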
CtBP-E1A blk = blocks the CtBP interaction with E1A | 340,000 tested, 0.49% active | AID 651724 | AlphaScreen GST-E1A/His-CtBP binding, 1536-well; stronger effect = lower value; control for the full effect not named in the record | activity change, % (concentration not given with the values); in the data active means activity change below about -65%; inconclusive means about -30% to -65%; inactive means above about -30%; note: % is set by controls: 0 for no effect and ±100 for the full control effect
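In 5 uL wells, 23 nL compound meets equimolar GST-E1A and His-CtBP (5X stock 125 nM each) for 2 h, 37 °C. Beads (5X, 50 ug/mL) then 1 h, 37 °C, dark.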
TRPML1 ag = activates the human TRPML1 channel. Q9GZU1. TRPML1-expressing cells, Ca2+ dye fluorescence, FDSS; host cell line not named in the record; reference of the full effect not given here. activation, % (concentration not given with the values). 410,000 tested, 0.12% active; in the data active = activation above about 50%; inconclusive = about 30% to 50%; inactive = below about 30%; note: 0% is about no effect; the text of the record puts the active cut at 80%
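Calcium fluorescence on an FDSS kinetic reader gave the read-out. Tet-induced TRPML1-DL cells were plated overnight, dye-loaded (Ca8 with quencher, 45-90 min, room temperature, dark), then read 110 s after compound addition, and again 110 s after 4uM final 54-4 (EC80).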
* hit, by the source's call; i = inactive; ? = inconclusive; · = no result given; & = joins results of further samples; [ ] = remark or other dose.

SMILES	TRPML1 inh	PINK1 modulator	Six1-Eya2 inh	D2 ag	CtBP-E1A blk	TRPML1 ag
CC(C)CC(=O)NC1(C(F)(F)F)C(=O)N(CC(C)C)C2=C1C(=O)CC(C)(C)C2 (centres undefined)	8.3	-2.2%	1.9	0.8	2.4	-0.4
CCCCOc1ccc(-c2nc(-c3cccnc3)no2)cc1	4.8	3.1%	10.3	-0.7	4.8	-0.3
N/C(=N\OC(=O)CCCC(=O)O)c1ncc(C(F)(F)F)cc1Cl	18.7	0.1%	0.2	-1.6	6.1	-0.5
Cc1ccc(NC(=O)CN(C)C(=O)Cc2c[nH]c3ccccc23)cc1	28.8	1.4%	-3.0	-3.4	5.0	0.0
COCOc1ccc(C=O)c(O)c1	·	-1.3%	-2.3	-7.7	0.0	·
COC(=O)COc1nc(C)c(Br)c(OC)n1	6.8	-1.7%	0.0	-3.5	3.7	-0.5
CC(C)C(=O)NNC(=O)CSc1nnnn1C(C)C	14.6	1.9%	-4.1	-3.9	·	0.7
CC1CCN(S(=O)(=O)c2ccc(C(=O)Nc3nc4ccc(F)cc4s3)cc2)CC1	-13.7	-2.1%	·	·	·	0.5
Cc1cnc(NC(=O)Cc2cccs2)s1	-13.0	-0.8%	2.6	-3.0	·	2.9
O=C(NCCc1ccccc1)C1CCCN(S(=O)(=O)c2cccc3nsnc23)C1 (centres undefined)	8.2	-1.3%	5.6	-4.5	-0.3	1.8
O=C(NCCn1cc(SCC(=O)N2CCOCC2)c2ccccc21)c1ccccc1	-3.0	0.3%	3.7	-4.7	6.0	-0.3
O=C(Nc1ccc(N2CCCC2)c(Cl)c1)c1cccnc1	1.3	-1.1%	-22.8	3.6	-16.4	-0.6
CCOC(=O)C1CCCN(C(=O)Cc2c(C(=O)O)[nH]c3ccccc23)C1 (centres undefined)	2.3	-1.7%[38.3 µM]	2.6	-2.1	2.6	-0.5
CCC(NS(=O)(=O)c1ccc(OC)cc1)C(=O)NCCc1ccccc1 (centres undefined)	4.7	0.2%	4.4	-0.9	12.6	2.8
CC(C)n1c(SCC(=O)N2CCN(C(=O)c3ccco3)CC2)nc2c1c(=O)n(C)c(=O)n2C	-1.4	-0.2%	-0.5	-2.2	-3.4	0.1
CCC(C)N=C1CC(C)(C)CC(=O)/C1=C(/O)Cc1ccccc1 (centres undefined)	9.1	1.3%	3.8	-5.7	-2.7	-0.3
O=C(CNS(=O)(=O)c1cccc(Br)c1)NCC1CCCCC1	6.1	0.8%	5.7	1.3	-5.4	-0.5
CCOCN(C(=O)Cn1cnc2ccccc21)c1c(C)cccc1CC	-17.3	-0.4%	-11.7	-2.1	-19.3	-0.1
O=C(CC1SC(=Nc2ccc(OC(F)F)cc2)N(CCN2CCOCC2)C1=O)Nc1ccc(F)cc1F (centres undefined)	9.8	-0.6%	-5.4	-1.9	4.4	1.5
CCOc1ccccc1/C=C/C(=O)NCC(=O)N1CCC(N(C)C2CCCCC2C)CC1 (centres undefined)	-5.4	-1.0%	-4.5	-2.3	8.0	0.2
Cc1ccccc1NC(=O)Cc1nc(COC(=O)c2ccc(NC(N)=O)cc2)cs1	15.2	2.7%	-6.9	5.6	-1.6	-0.8
CC1Sc2ccccc2N(Cc2ccc(OC(F)(F)F)cc2)C1=O (centres undefined)	18.5	?	26.9	-1.7	18.9	0.9
Cc1nn(-c2ccccc2)c(N)c1-c1ccccc1	20.4	2.1%	-0.6	-4.2	0.2	0.4
COc1ccc(C(=O)NCC(=O)N2CCC(Cc3ccccc3)CC2)cc1OC	0.2	2.1%	3.8	-2.6	-2.1	-0.4
Cc1ccc(NC(=O)C2CCCN2S(=O)(=O)c2ccc3c(c2)C(C)(C)C(=O)N3C)cc1 (centres undefined)	-17.3	0.3%	·	·	·	-0.5
COc1ccccc1-c1noc(-c2ccc(NCC3CCCO3)c([N+](=O)[O-])c2)n1 (centres undefined)	7.9	0.4%	·	·	·	-0.8
O=C(CN(Cc1ccco1)C(=O)c1ccc(F)cc1)Nc1ccccc1Br	11.4	0.0%	-15.9	4.7	-0.2	0.4
O=C(N/N=C/C=C/c1ccccc1)c1cccc(Br)c1	5.4	-1.2%[38.3 µM]	-7.9	-1.3	-13.4	5.7
CC(=O)N1CCN(C(=S)NC(=O)C23CC4CC(CC(C4)C2)C3)CC1	-23.7	0.3%	9.2	-1.2	-3.8	0.9
CC(OC(=O)Cn1cc(C(F)(F)F)ccc1=O)C(=O)NC(C)c1ccc(Cl)cc1Cl (centres undefined)	-11.5	2.0%	-7.2	-7.2	2.6	0.3
Cn1nnc(NC(=O)c2ccccc2)n1	-3.9	-0.7%	3.1	-2.4	3.0	0.7
COc1ccc(-c2nc(C)c(CCNC(=O)c3c(F)cccc3F)s2)cc1	?	0.0%	·	·	·	2.2
O=C(N/N=C/c1ccc(OC(=O)c2ccc(Br)cc2)cc1)c1ccncc1	17.3	-0.9%	?	1.0	5.5	-0.1
COc1ccc(OC)c(C(=O)CSc2nnc(C3CC3)n2C2CC2)c1	-9.9	2.3%	1.1	-1.7	-18.9	-0.4
O=C(Nc1ccc(F)cc1)[C@@H](c1ccccc1)N1Cc2ccccc2C1=O	-0.2	1.5%	·	·	·	1.0
Cc1nn(C)c2c1c(C(F)(F)F)cc(=O)n2C(C)C(=O)NCc1ccc(Cl)cc1 (centres undefined)	-8.4	4.7%	·	·	·	0.7
O=C(COC(=O)Cc1c[nH]c2ccccc12)Nc1cccc(Br)c1	17.1	-0.6%	-9.9	-0.4	-3.9	-0.2
O=C(CCn1c(=O)[nH]c2ccccc2c1=O)N1CCN(c2cccc(C(F)(F)F)c2)CC1	24.5	-3.5%	-0.3	-3.0	21.7	1.4
O=S(=O)(NC(=NC1CCCCC1)c1ccccc1)c1ccccc1	-7.5	-2.6%	-1.2	-3.4	6.6	0.5
CCn1c(CNc2ccc(Cl)cc2)nnc1SCc1ccc(Cl)cc1	-7.7	-0.9%[38.3 µM]	-0.4	1.1	-6.8	0.4
O=S1(=O)CCOC[C@H](Cc2ccccc2)N1Cc1ccccc1	-0.1	0.8%	2.6	-2.3	5.5	-0.2
Cc1ccc(CN2CCN(Cc3cccn3-c3ccccn3)CC2CCO)o1 (centres undefined)	-10.3	-0.6%	17.3	-6.9	·	0.2
Cc1c2c(n3c(nc4ccccc43)c1C#N)N(CCCN(C)C)CC2	-3.6	-1.7%	1.0	-3.9	0.6	-0.1
O=C(Nc1ccccc1F)c1ccc(CSc2ccccc2)o1	-3.0	0.1%	11.1	-0.4	39.7	2.3
CN1CCN(C(=O)N2c3ccccc3C=Cc3ccccc32)CC1	16.9	-0.8%	4.8	-1.3	-3.1	-0.5
O=C(O)COCC(=O)NCc1csc2ccc(Cl)cc12	-14.5	0.5%	-2.9	-2.2	-4.5	0.9
Cc1ccc(Nc2nc(-c3sc(N)nc3C)cs2)cc1	·	1.1%	-2.4	2.0	·	·
CCCCCCSc1ccc(-c2nc3cnccn3c2NC2CCCCC2)cc1	·	1.3%	15.0	·	13.9	1.2
CCOCCn1c(CN2CCCC(C)C2)nc2c1c(=O)n(C)c(=O)n2C (centres undefined)	-3.4	-1.1%	7.7	-5.6	5.5	-0.4
CN(CCOc1ccccc1)CC(=O)Nc1ccc(S(=O)(=O)N2CCCC2)cc1	-1.8	-0.3%	1.1	4.9	·	1.1
COc1ccc(S(=O)(=O)N2CCN(c3c(C)cccc3C)CC2)cc1OC	8.8	1.1%	-11.2	5.1	-1.8	0.8
C/C(=N/NC(=O)c1cccs1)c1ccc(NC(=O)COc2ccc(Cl)cc2Cl)cc1	-17.1	2.6%	5.9	-0.8	-1.2	0.1
CCOC(=O)C1=CCN(S(=O)(=O)c2ccc(C)cc2)C1c1ccc(Cl)c(Cl)c1 (centres undefined)	2.7	4.2%	3.7	-6.9	6.9	-0.1
CC(C)Oc1cc(F)ccc1-c1cc(C(=O)NCCc2ccncc2)[nH]n1	·	0.4%	-5.6	-1.1	-5.5	-1.2
O=C(N/N=C(\c1ccccc1)c1cccnc1)C(O)(c1ccccc1)c1ccccc1	0.8	-1.6%	3.6	-1.7	-2.1	2.5
CCOC(=O)c1cnc(-n2nc(C)cc2C)nc1NNc1ncc(-c2ccccc2)cn1	?	?	-21.0	-2.2	?	2.1
Cc1ccc(/C=C2/Sc3ccccc3N(CC(=O)NCC3CCCO3)C2=O)cc1 (centres undefined)	-0.9	0.6%	-4.6	2.6	-11.3	1.6
O=C(CSc1ccc2ccccc2n1)Nc1nsc(-c2ccc(Cl)cc2)n1	34.2&18.0	2.4%&3.9%	-2.6	-2.9	23.5	2.0&5.2
NC(=O)C1(N2CCCCC2)CCN(C(=O)c2ccccc2)CC1	-6.0	-0.3%	-2.6	-4.5	-1.4	-0.3
Cc1cccc(Nc2cc(C)nc3nc(Cc4ccc(Cl)cc4)nn23)c1	?	3.3%	·	·	·	0.2

(list continues)
SMILES	TRPML1 inh	PINK1 modulator	Six1-Eya2 inh	D2 ag	CtBP-E1A blk	TRPML1 ag
Cc1ccc(C(=O)CSc2cnc3ccccc3n2)cc1C	21.4	3.3%	4.7	-4.3	19.7	0.1
COc1cc(C(=O)NC(=S)Nc2nccs2)cc(OC)c1OC	2.2	6.7%	-13.7	0.7	-21.9	-0.8
O=C(COc1ccccc1Cl)NNC(=O)Cn1[nH]c(=O)c2ccccc2c1=O	-0.9	0.7%	-1.8	-2.8	-4.1	0.3
Nc1ccc(NC(=O)c2ccc(C(=O)Nc3ccc(N)cc3)cc2)cc1	24.8	14.5%	i	0.9	206.2	1.8
CCc1ccc(OC)c(S(=O)(=O)NCCOc2ccccc2)c1	11.7	0.3%[38.3 µM]	4.2	-0.5	8.9	-0.5
CCc1ccc(NSc2ccccc2[N+](=O)[O-])cc1	3.7	?	?	1.4	9.3	1.7
O=C(c1ccccc1)c1ccccn1	-8.6	-1.4%	-2.0	1.0	7.3	-0.6
C=CCN1C(=O)c2ccc(C(=O)OCC(=O)Nc3ccccc3OC)cc2C1=O	11.9	3.3%	7.3	8.1	0.9	0.2
COc1ccc(CC(=O)NNC2=Nc3cccc4cccc2c34)cc1	9.8	7.1%	-0.6	-2.5	0.6	0.2
COc1ccc(OC)c(NC(=O)C(=O)NNC(=O)c2cccs2)c1	-3.3	11.9%	-9.2	0.1	-19.3	0.4
NC(=O)COC(=O)CCCc1c[nH]c2ccccc12	25.1	-1.3%	10.0	-3.6	1.2	0.0
Cc1cc(O)ccc1-c1cc(C(=O)NCc2ccc(F)cc2)[nH]n1	·	2.4%	0.3	1.3	-1.0	3.9
CC(C)C[C@H](NC(=O)Nc1cccc(C(F)(F)F)c1)C(=O)O	-8.1	-0.6%[38.3 µM]	11.2	1.9	-0.7	0.3
COC(=O)c1ccccc1NC(=S)NC(NC(=O)c1ccco1)C(Cl)(Cl)Cl (centres undefined)	22.4	-1.6%[38.3 µM]	-1.2	-0.6	-0.3	0.9

Taken from above (two entries):
SMILES	TRPML1 inh	PINK1 modulator	Six1-Eya2 inh	D2 ag	CtBP-E1A blk	TRPML1 ag
Cc1ccc(C(=O)CSc2cnc3ccccc3n2)cc1C	21.4	3.3%	4.7	-4.3	19.7	0.1
COc1cc(C(=O)NC(=S)Nc2nccs2)cc(OC)c1OC	2.2	6.7%	-13.7	0.7	-21.9	-0.8

Outcome played no part in choosing rows. Share with any hit: about 1%.
